Vaccinia inh: blocks a specific stage of Vaccinia orthopoxvirus infection; activity change (mCherry), % (no concentration beside the values); Vaccinia-infected cells, mCherry/Venus stage reporter fluorescence; active compounds read low; some inactives read as strong as hits; AID 1053133; actives 0.01% (n = 89,000);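 active = mCherry past -33% and 40 or more points under the early reporter, replicates agreeing; inconclusive = past -33% without that gap or agreement; tested in A549 cells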;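 also: scaled between vehicle wells and reference inhibitor wells; 23 nL library stock went into each well; one replicate is shown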
Vaccinia inh Venus: second read-out of Vaccinia inh, no call of its own (marks repeat the call); activity change (Venus), %; measured here: Venus reporter, other viral stage;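 negative = less Venus signal; first of two replicates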
Starred values were filed as active, the others as inactive; ? = inconclusive; . = no result given; & = joins results of further samples. These rows are one share of the data. The share of hits here may be higher or lower than overall.

SMILES	Vaccinia inh	Vaccinia inh Venus
C[C@@H](NC(=O)C[C@@H]1C=C[C@@H](NS(=O)(=O)c2cccc(F)c2)[C@@H](CO)O1)c1ccccc1	1	7
CO[C@H]1CN(C)C(=O)c2cc(NC(=O)c3ccccc3F)ccc2OC[C@@H](C)N(C)C[C@@H]1C	0	1
CO[C@H]1CN(C)C(=O)c2ccc(NS(=O)(=O)c3cccc(F)c3)cc2OC[C@H](C)NC[C@@H]1C	2	5
C[C@@H]1CN([C@@H](C)CO)S(=O)(=O)c2ccc(Br)cc2O[C@H]1CN(C)C(=O)c1ccc2c(c1)OCO2	-2	0
Cc1ccc(S(=O)(=O)Nc2ccc3c(c2)C(=O)N([C@H](C)CO)C[C@H](C)[C@H](CN(C)C(=O)Nc2c(C)noc2C)O3)cc1	-2	-8
C[C@H]1CN([C@@H](C)CO)S(=O)(=O)c2ccc(C3=CCCC3)cc2O[C@H]1CN(C)CC1CCOCC1	-25	-17
O=C(c1cccnc1)N1C[C@H]2[C@@H](c3ccccc31)[C@@H](CO)N2C(=O)CN1CCOCC1	2	-1
CC(C)NC(=O)N(C)C[C@H]1Oc2c(NC(=O)C3CCCCC3)cccc2C(=O)N([C@@H](C)CO)C[C@@H]1C	20	11
C[C@H](NC(=O)C[C@@H]1CC[C@H](NC(=O)Nc2ccc3c(c2)OCO3)[C@H](CO)O1)c1ccccc1	10	2
Cc1ccc(S(=O)(=O)Nc2ccc3c(c2)C(=O)N([C@H](C)CO)C[C@H](C)[C@@H](CN(C)C(=O)Nc2cccc4ccccc24)O3)cc1	26	32
COC(=O)[C@@]1(Cc2ccccc2N=[N+]=[N-])COC(c2ccc(OCCCO)cc2)=N1	-10	-3
C[C@H]1CN([C@@H](C)CO)C(=O)CCCn2nncc2CO[C@H]1CN(C)C(=O)Nc1ccccc1C(F)(F)F	15	5
CC(C)NC(=O)N(C)C[C@@H]1Oc2ncc(C#CCC3CCCC3)cc2C(=O)N([C@H](C)CO)C[C@@H]1C	-29	-21
Cc1noc(C)c1S(=O)(=O)Nc1ccc2c(c1)C(=O)N([C@H](C)CO)C[C@H](C)[C@@H](CN(C)S(=O)(=O)c1cn(C)cn1)OCCCC[C@H](C)O2	20	6
COc1cccc(C(=O)Nc2ccc3c(c2)C(=O)N(C)C[C@H](OC)[C@H](C)CN(C(=O)C2CCCC2)[C@H](C)CO3)c1	-28	-18

3 compounds drawn at random from the list so far, as already listed:
SMILES	Vaccinia inh	Vaccinia inh Venus
Cc1ccc(S(=O)(=O)Nc2ccc3c(c2)C(=O)N([C@H](C)CO)C[C@H](C)[C@H](CN(C)C(=O)Nc2c(C)noc2C)O3)cc1	-2	-8
C[C@H]1CN([C@@H](C)CO)S(=O)(=O)c2ccc(C3=CCCC3)cc2O[C@H]1CN(C)CC1CCOCC1	-25	-17
C[C@H](NC(=O)C[C@@H]1CC[C@H](NC(=O)Nc2ccc3c(c2)OCO3)[C@H](CO)O1)c1ccccc1	10	2

Continued:
SMILES	Vaccinia inh	Vaccinia inh Venus
COc1ccc(NC(=O)N(C)C[C@H]2OCCCC[C@@H](C)Oc3ccc(NS(=O)(=O)c4cccs4)cc3C(=O)N([C@H](C)CO)C[C@@H]2C)cc1	7	6
CC(C)OC(=O)N(C)C[C@@H]1OCc2ccccc2-c2ccccc2C(=O)N([C@H](C)CO)C[C@@H]1C	5	-1
Cc1ccc(S(=O)(=O)N(C)C[C@@H]2Oc3ccc(NS(=O)(=O)c4c(C)noc4C)cc3C(=O)N([C@H](C)CO)C[C@@H]2C)cc1	22	15
COc1ccc(NC(=O)N(C)C[C@@H]2Oc3ccc(NC(=O)C4CC4)cc3C(=O)N([C@H](C)CO)C[C@@H]2C)cc1	-1	0
COc1ccc(NC(=O)Nc2ccc3c(c2)C(=O)N([C@@H](C)CO)C[C@@H](C)[C@@H](CN(C)Cc2ccc(Oc4ccccc4)cc2)O3)cc1	?	.
CNC[C@H]1Oc2ccc(NS(=O)(=O)c3ccccc3)cc2CC(=O)N([C@@H](C)CO)C[C@H]1C	14	7
C[C@H](CO)N1C[C@H](C)[C@H](CN(C)C(=O)NC2CCCCC2)Oc2c(NS(=O)(=O)c3cccs3)cccc2C1=O	-10	-19
N#C[C@@H]1[C@H](c2ccc(C3=CCCC3)cc2)[C@@H](CO)N1C(=O)NC1CCCCC1	-5	2
O=C(CC1CC1)Nc1ccc2c(c1)[C@@H]1C[C@H](CC(=O)N3CCc4ccccc4C3)O[C@@H](CO)[C@@H]1O2	-1	5
C[C@H]1CN([C@@H](C)CO)C(=O)c2cc(NC(=O)C3CC3)ccc2O[C@@H]1CN(C)C(=O)Nc1ccc(C(F)(F)F)cc1	-4	0
C[C@H](CO)N1C[C@H](C)[C@H](CN(C)Cc2ccc(C(=O)O)cc2)Oc2ccc(NC(=O)Nc3cccc4ccccc34)cc2C1=O	12	2
COCC(=O)N1CC[C@@H]2[C@H]1c1cc(-c3cccc(F)c3)ccc1N(C)[C@@H]2CO	16	3
CO[C@H]1CN(C)C(=O)c2ccc(NC(=O)Nc3ccccc3F)cc2OC[C@@H](C)N(C)C[C@H]1C	6	-2
C[C@@H]1CN([C@H](C)CO)C(=O)Cc2cc(N(C)C)ccc2O[C@H]1CN(C)S(C)(=O)=O	15	14
O=C(N[C@H]1CC[C@@H](CCNS(=O)(=O)c2ccc(Cl)cc2)O[C@H]1CO)c1cccc(F)c1	-3	-1
COc1ccccc1NC(=O)N1CCCCN2[C@H](CO)[C@@H](c3ccc(C#CC4CCCC4)cc3)[C@H]2C1	?	.
COCC(=O)N(C)C[C@H]1Oc2ncc(C#C[C@@H](C)O)cc2C(=O)N([C@H](C)CO)C[C@H]1C	10	3
O=C(O)C1=C[C@H](c2coc3ccccc3c2=O)C[C@H](OCCCCO)O1	15&1	7&-2
CCC(=O)N[C@H]1C=C[C@@H](CC(=O)OC)O[C@H]1CO	13	5
COc1ccc(NC(=O)N[C@@H]2C=C[C@H](CC(=O)NC3CCCCC3)O[C@H]2CO)cc1	9	12
Cc1ccccc1-c1ccc([C@@H]2[C@@H](CO)N3C(=O)CN(C(=O)c4ccc(F)cc4)C[C@H]23)cc1	-23	-23
C[C@H]1CN([C@@H](C)CO)S(=O)(=O)c2ccc(C#CC3(O)CCCC3)cc2O[C@@H]1CN(C)C(=O)Cc1ccncc1	6	6
OC[C@H]1[C@@H](c2ccc(-c3cccnc3)cc2)[C@H]2CN(Cc3ccccn3)CCCCN21	19	1
CN(C)CC(=O)N1CC(=O)N2[C@H](CO)[C@@H](c3ccc(-c4ccc(C#N)cc4)cc3)[C@H]2C1	-6	-7
C[C@@H]1CCCCO[C@H](CN(C)C(=O)Cc2ccccc2)[C@H](C)CN([C@@H](C)CO)C(=O)c2cc(NC(=O)Nc3ccc(F)cc3)ccc2O1	-16	-11
C[C@@H]1CCCCO[C@H](CN(C)C(=O)C2CCCCC2)[C@H](C)CN([C@@H](C)CO)C(=O)c2cc(NC(=O)Nc3ccc4c(c3)OCO4)ccc2O1	?	.
O=S(=O)(c1ccc(F)cc1)N1CCCCN2[C@H](CO)[C@@H](c3ccc(C#CC4CC4)cc3)[C@@H]2C1	-26	-14
Cn1cnc(CCNC(=O)C[C@@H]2CC[C@H]3[C@@H](COC[C@@H](O)CN3C(=O)Nc3ccc(F)cc3)O2)c1	5	11
Cc1noc(C)c1NC(=O)N(C)C[C@H]1Oc2ccc(NS(=O)(=O)c3ccc(F)cc3)cc2C(=O)N([C@H](C)CO)C[C@H]1C	10	6
CCO[C@@H]1OC(C(=O)Nc2ccccc2)=C[C@H](c2ccc3c(c2)OCO3)[C@H]1CCCO	3	7

Some of the entries so far, as a markdown table.
| SMILES | Vaccinia inh | Vaccinia inh Venus |
| --- | --- | --- |
| C[C@@H]1CCCCO[C@H](CN(C)C(=O)Cc2ccccc2)[C@H](C)CN([C@@H](C)CO)C(=O)c2cc(NC(=O)Nc3ccc(F)cc3)ccc2O1 | -16 | -11 |
| C[C@@H]1CCCCO[C@H](CN(C)C(=O)C2CCCCC2)[C@H](C)CN([C@@H](C)CO)C(=O)c2cc(NC(=O)Nc3ccc4c(c3)OCO4)ccc2O1 | ? | . |
| O=S(=O)(c1ccc(F)cc1)N1CCCCN2[C@H](CO)[C@@H](c3ccc(C#CC4CC4)cc3)[C@@H]2C1 | -26 | -14 |
| Cn1cnc(CCNC(=O)C[C@@H]2CC[C@H]3[C@@H](COC[C@@H](O)CN3C(=O)Nc3ccc(F)cc3)O2)c1 | 5 | 11 |
| Cc1noc(C)c1NC(=O)N(C)C[C@H]1Oc2ccc(NS(=O)(=O)c3ccc(F)cc3)cc2C(=O)N([C@H](C)CO)C[C@H]1C | 10 | 6 |
| CCO[C@@H]1OC(C(=O)Nc2ccccc2)=C[C@H](c2ccc3c(c2)OCO3)[C@H]1CCCO | 3 | 7 |

More structures follow.
SMILES	Vaccinia inh	Vaccinia inh Venus
CCCNC(=O)N1C[C@@H](C)[C@H](OC)CN(C)C(=O)c2ccc(NC(=O)CCC)cc2OC[C@@H]1C	2	1
COc1ccc2c3c(n(C)c2c1)[C@@H](CO)N(C(=O)C1CCC1)CC31CCN(CC2CCCC2)CC1	-13	-11
C[C@@H]1CCCCO[C@@H](CN(C)S(=O)(=O)c2cccs2)[C@@H](C)CN([C@H](C)CO)C(=O)c2cc(NC(=O)CCCN(C)C)ccc2O1	0	-4
C[C@@H]1CCCCO[C@@H](CN(C)Cc2ccc(Cl)c(Cl)c2)[C@H](C)CN([C@H](C)CO)C(=O)c2cc(NS(=O)(=O)c3cn(C)cn3)ccc2O1	?	.
CCCNC(=O)Nc1ccc2c(c1)OC[C@@H](C)N(C(=O)CC)C[C@@H](C)[C@H](OC)CN(C)C2=O	17	11
C[C@@H]1CN([C@@H](C)CO)C(=O)c2cccc(NC(=O)Nc3ccc(C(F)(F)F)cc3)c2O[C@@H]1CN(C)C(=O)Nc1ccc(C(F)(F)F)cc1	?	.
CC(C)(C)[S@@](=O)N1Cc2cc(C(=O)N3CCOCC3)nc(-c3cccc(-c4ccccc4F)c3)c2[C@H]1CCO	-9	-1
O=C(N[C@@H]1CC[C@H](CC(=O)N2CCCCC2)O[C@H]1CO)c1ccc2c(c1)OCO2	3	-3
C[C@@H]1CN([C@H](C)CO)C(=O)c2cccc(NS(C)(=O)=O)c2O[C@H]1CN(C)C(=O)NC1CCCCC1	3	0
O=C(C[C@H]1CC[C@H]2[C@@H](COC[C@@H](O)CN2C(=O)Nc2ccc(Cl)c(Cl)c2)O1)NCc1ccc(Cl)c(Cl)c1	?	.
O=C(Nc1ccc(Cl)cc1)N[C@H]1CC[C@@H](CCn2cc(C3(O)CCCC3)nn2)O[C@@H]1CO	-13	-7
Cc1cccc(-c2ccc([C@H]3[C@H](CO)N4CCCCN(Cc5cncnc5)C[C@@H]34)cc2)c1	-6	-13
COc1ccc(CN(C)C[C@@H]2Oc3ccc(NC(=O)Nc4ccc5c(c4)OCO5)cc3CC(=O)N([C@H](C)CO)C[C@H]2C)cc1	2	1
COCC(=O)N1CC2(C1)[C@H](c1ccccc1)[C@H](CO)N2C(=O)c1ccccc1	17	24
C[C@@H]1CN([C@H](C)CO)C(=O)c2cc(NC(=O)CCCN(C)C)ccc2O[C@@H](C)CCCCO[C@@H]1CN(C)S(=O)(=O)c1cn(C)cn1	9	1
O=C(N[C@H]1CC[C@H](CCNC(=O)c2cnccn2)O[C@H]1CO)c1ccc2c(c1)OCO2	-2	-2
COc1ccc(NC(=O)Nc2ccc3c(c2)CC(=O)N([C@H](C)CO)C[C@@H](C)[C@H](CN(C)C(=O)Nc2ccc4c(c2)OCO4)O3)cc1	20	7
N#Cc1cccc(-c2ccc([C@@H]3[C@@H](CO)N4CCCCN(C(=O)Nc5ccccc5)C[C@@H]34)cc2)c1	?	.
Cc1ccc(S(=O)(=O)Nc2ccc3c(c2)CC(=O)N([C@H](C)CO)C[C@H](C)[C@@H](CN(C)C(=O)Nc2c(C)noc2C)O3)cc1	28	19
C[C@@H]1CN([C@@H](C)CO)C(=O)c2cc(NC(=O)Cc3ccccc3)ccc2O[C@@H](C)CCCCO[C@H]1CN(C)C(=O)Cc1ccccc1	?	.
COc1cc2c(cc1OC)CN(C(=O)[C@@H]1[C@H]3C(=O)O[C@H](c4ccccc4)[C@H](c4ccccc4)N3[C@H](c3ccc(O)cc3)[C@@]13C(=O)Nc1ccc(C#CCCO)cc13)CC2	21	17
C[C@@H]1CCCCO[C@H](CN(C)C)[C@H](C)CN([C@H](C)CO)C(=O)c2cc(NS(C)(=O)=O)ccc2O1	1	-6
CC(=O)N(C)C[C@H]1[C@@H](c2ccc(-c3ccccc3F)cc2)[C@@H](CO)N1C(C)=O	-7	1
C[C@@H]1CN([C@@H](C)CO)C(=O)Cc2cc(NC(=O)Cc3ccccc3)ccc2O[C@H]1CN(C)Cc1ccc(C(F)(F)F)cc1	?	.
COc1ccc(NC(=O)N(C)C[C@@H]2Oc3ccc(NC(=O)NC4CCCCC4)cc3CC(=O)N([C@@H](C)CO)C[C@H]2C)cc1	7	11
Cc1noc(C)c1NC(=O)Nc1ccc2c(c1)C(=O)N(C)[C@@H]1CC[C@H](CC(=O)NCc3ccc(Cl)cc3)O[C@H]1CO2	7	4
CNC(=O)C[C@H]1CC[C@H]2[C@@H](COc3ccc(NC(=O)c4ccccc4OC)cc3C(=O)N2C)O1	4	4
COc1ccc(NC(=O)Nc2ccc3c(c2)C(=O)N([C@H](C)CO)C[C@@H](C)[C@H](CN(C)C(=O)NC(C)C)O3)cc1	5	6
O=C(C[C@H]1CC[C@H]2[C@@H](COC[C@@H](O)CN2Cc2ccncc2)O1)NCC1CC1	8	6
C/C=C/c1ccc2c(c1)O[C@H](CN(C)Cc1ccc(F)cc1)[C@H](C)CN([C@@H](C)CO)S2(=O)=O	?	.
C[C@H]1CN([C@@H](C)CO)C(=O)c2cc(-c3ccccc3F)cnc2O[C@@H]1CN(C)Cc1cccc(C(=O)O)c1	21	11
C/C=C/c1ccc2c(c1)O[C@@H](CN(C)Cc1ccccn1)[C@H](C)CN([C@@H](C)CO)S2(=O)=O	-10	-10
CCCC#Cc1cnc2c(c1)C(=O)N([C@H](C)CO)C[C@H](C)[C@H](CN(C)C(=O)C1CC1)O2	6	2

Screening results: PubChem, Broad Institute
